Screens: PubChem, several laboratories
RN4220 kill – growth inhibition of S. aureus RN4220, primary screen, OD600; inhibition, % (test concentration not listed); 330,000 compounds, 0.33% hits; 16 h; AID 1259311, 2017;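 active = z-score of -3 or lower and OD600 up to 0.18 on both plates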;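 note: plate controls were untreated cells for no effect and reference antibiotic for full effect; stock transfer was 100 nL into about 80 µL; one replicate is shown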
Mtb hypoxia inh – PubChem AID 1159583. M. tuberculosis hypoxia-regulated fluorescent reporter, fluorescence. fluorescence inhibition, % (test concentration not listed). 300,000 compounds, 0.1% hits;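 active = 35 to 45% if threefold the growth effect, above 45% if 1.5-fold the growth effect; inactive = the rest, general growth blockers included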;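 note: wells of about 50 µL received 100 nL stock; 0% = vehicle wells and 100% = reference inhibitor wells; whole bacteria with a GFP reporter of the hypoxia response; strong numbers were not always called active; many hits fall short of the cut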
BJeLR viability – MLPCN primary cell-based screen for lethality selective to Ras in HRASV12 cells; BJeLR (HRASV12) viability, CellTiter-Glo ATP luminescence, 48 h; reference of the scale not given here; inhibition, % (test concentration not listed); 300,000 compounds, 0.17% hits; AID 1554, 2009;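 active = replicate mean above 50%; inconclusive = above 50% but judged a plate artefact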;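 note: 50 nL library stock added to about 25 µL; numbers are from one replicate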
PrP 5UTR inh – inhibition of PrP 5' UTR reporter expression | cell-based PrP 5' UTR mRNA reporter, plate reader | inhibition, % (no concentration beside the values) | 340,000 compounds, 0.35% hits | AID 488862, 2010;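 active = every replicate at 50% or more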;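 note: 0 = median of the neutral control wells; tested in H4 reporter cells; numbers are from one replicate; inactives centre near -14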
Bead autofluor – compound fluorescence in toxin protease inhibitor counterscreen | compound autofluorescence counterscreen, microsphere flow cytometry; stronger effect = higher value | fluorescence intensity (test concentration not listed) | 360,000 compounds, 3.1% hits | AID 624483;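 active = at least 3 SD above the mean of all compounds, about 16000 in these data; inconclusive = too few beads counted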;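 note: 100 nL of 1 mM stock went into each well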
ugtP null kill – growth inhibition of ugtP-null S. aureus, primary screen, RN4220 ugtP deletion, OD600; 330,000 compounds, 0.54% hits; 16 h; some inactives read as strong as hits; growth inhibition, % (no concentration beside the values);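 active = z-score under -3 and OD600 up to 0.15 on both plates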;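 note: plate controls were untreated wells for no effect and antibiotic for full effect; wells of about 80 µL received 100 nL stock; the first replicate is given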
Mtb hypoxia inh growth – further read-out of Mtb hypoxia inh, marked with its call; growth inhibition, %; measured here: M. tuberculosis growth (absorbance);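 0% = vehicle and 100% = reference antibiotic; read after six days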
* hit, by the source's call; ? = inconclusive; . = not tested or not shown.

The opening 2 entries as a preview:
Letters: A = RN4220 kill; B = Mtb hypoxia inh; C = Mtb hypoxia inh growth; D = BJeLR viability; E = PrP 5UTR inh; F = Bead autofluor; G = ugtP null kill
> Cc1cc(C)c(NC(=O)C(C)N2CCCCCC2)c(C)c1 (configuration not stated)
  A: 3.6; B: 7; C: -4; D: -12; E: -15; F: 3838; G: 6

> CC(C)CNc1nc(SCC(=O)Nc2ccccc2)nc(N2CCOCC2)n1
  A: -0.1; B: 7; C: 8; D: 21; E: -13; F: 4047; G: 3

Main list, from the first entry:
Letters: A = RN4220 kill; B = Mtb hypoxia inh; C = Mtb hypoxia inh growth; D = BJeLR viability; E = PrP 5UTR inh; F = Bead autofluor; G = ugtP null kill
> Cc1cc(C)c(NC(=O)C(C)N2CCCCCC2)c(C)c1 (configuration not stated)
  A: 3.6; B: 7; C: -4; D: -12; E: -15; F: 3838; G: 6

> CC(C)CNc1nc(SCC(=O)Nc2ccccc2)nc(N2CCOCC2)n1
  A: -0.1; B: 7; C: 8; D: 21; E: -13; F: 4047; G: 3

> CCCC(=O)N(Cc1cc(=O)[nH]c2ccccc12)c1ccc(OC)cc1
  A: 3.4; B: -6; C: 9; D: -2; E: -13; F: 3885; G: -8

> Nc1nnc(Cc2ccccc2F)s1
  A: 6.1; B: 12; C: -12; D: 0; E: -21; F: 4629; G: 11

> Cc1ccccc1COC(=O)c1nn(-c2ccccc2)nc1N
  A: -7.5; B: 2; C: 11; D: -10; E: -32; F: 2590; G: 15

> O=C(COc1ccc2ccccc2c1)NNC(=O)Cc1cccc2ccccc12
  A: -3.0; B: 12; C: 0; D: -5; E: -9; F: 3867; G: 1

> CC(C)(C)c1ccc(C(=O)C2CCCN(Cc3ccon3)C2)cc1 (configuration not stated)
  A: -0.9; B: -1; C: -8; D: -1; E: -38; F: 2158; G: 9

> COc1ccccc1NS(=O)(=O)c1cc(NC(=O)c2sc3cc(Cl)ccc3c2Cl)ccc1C
  A: 2.3; B: 1; C: -1; D: -2; E: -12; F: 2176; G: -12

> CCOC(=O)c1sc2nc(C)cc(C)c2c1N
  A: 5.4; B: 4; C: 0; D: 3; E: -19; F: 15661; G: 5

> CC1=NN(/C(=N\c2nnc(C)s2)Nc2ccc(C(C)(C)C)cc2)[C@H](c2ccc(C)cc2)S1
  A: .; B: .; C: .; D: 2; E: -9; F: 3987; G: .

Whole records, looked up by structure. Screens in order: RN4220 kill, Mtb hypoxia inh, Mtb hypoxia inh growth, BJeLR viability, PrP 5UTR inh, Bead autofluor, ugtP null kill
`O=C(COc1ccc2ccccc2c1)NNC(=O)Cc1cccc2ccccc12` in the list: -3.0, 12, 0, -5, -9, 3867, 1
`CCOC(=O)c1sc2nc(C)cc(C)c2c1N` in the list: 5.4, 4, 0, 3, -19, 15661, 5
`COc1ccccc1NS(=O)(=O)c1cc(NC(=O)c2sc3cc(Cl)ccc3c2Cl)ccc1C` in the list: 2.3, 1, -1, -2, -12, 2176, -12
`CC1=NN(/C(=N\c2nnc(C)s2)Nc2ccc(C(C)(C)C)cc2)[C@H](c2ccc(C)cc2)S1` in the list: ., ., ., 2, -9, 3987, .
`Cc1ccccc1COC(=O)c1nn(-c2ccccc2)nc1N` in the list: -7.5, 2, 11, -10, -32, 2590, 15

Additional entries.
Letters: A = RN4220 kill; B = Mtb hypoxia inh; C = Mtb hypoxia inh growth; D = BJeLR viability; E = PrP 5UTR inh; F = Bead autofluor; G = ugtP null kill
> COc1cccc(NC(=O)c2cc3ccccc3oc2=O)c1
  A: 2.3; B: 1; C: 0; D: 17; E: 29; F: 3627; G: 1

> O=C(c1ccco1)N1CCN(c2ccc([N+](=O)[O-])cc2F)CC1
  A: -1.5; B: -8; C: -9; D: 6; E: 2; F: 6123; G: -9

> CCN1CCCc2cc(CN(CCN3CCOCC3)C(=S)Nc3ccc(OC)c(Cl)c3)ccc21
  A: .; B: .; C: .; D: 3; E: -23; F: 4597; G: .

> CN1CCC(N(C)S(=O)(=O)c2ccc(NC(=O)Cc3ccc(F)cc3)cc2)CC1
  A: 0.0; B: 1; C: 2; D: .; E: .; F: .; G: 1

> CCC(C(=O)NC1CCCC1)N(Cc1ccc2c(c1)OCO2)C(=O)c1snc(C(N)=O)c1N (configuration not stated)
  A: -2.3; B: 0; C: 10; D: -5; E: -25; F: 11893; G: -6

> COc1nc(/C(N)=N/O)nc(N2CCCCC2)n1
  A: 1.0; B: .; C: .; D: -1; E: -13; F: 2768; G: 7

> CC(C)Oc1ccc(C(=O)NCC(=O)N2CCN(S(=O)(=O)/C=C/c3ccccc3)CC2)cc1
  A: -1.6; B: 3; C: -3; D: .; E: -33; F: 2972; G: 6

> Cc1ccc(-c2nc3nc4ccccc4nc3n2Cc2ccco2)cc1
  A: -0.5; B: .; C: .; D: -1; E: -118; F: 4823; G: 0

> Cn1cccc1-c1cc(C(=O)N2CCc3c([nH]c4ccccc34)C2c2ccccn2)[nH]n1 (configuration not stated)
  A: 2.5; B: -6; C: 5; D: -6; E: 4; F: 4531; G: 7

> CCOC(=O)C1C(=O)CC(C)(O)C(C(=O)OCC)C1c1ccccc1 (configuration not stated)
  A: 2.0; B: -2; C: 7; D: 6; E: 1; F: 4766; G: -1

> COc1ccc(S(=O)(=O)NCCCN2CCOCC2)c2ccccc12
  A: 5.3; B: 15; C: -8; D: -4; E: -10; F: 10521; G: 10

> Cc1ccc(NC(=O)Cc2n[nH]c(=O)c3ccccc23)cc1S(=O)(=O)N1CCCCCC1
  A: -0.1; B: 9; C: 7; D: .; E: -3; F: 3861; G: 0

> O=C(COc1cccc(Cl)c1)NCC(c1cccs1)N1CCOCC1 (configuration not stated)
  A: 7.1; B: 7; C: 9; D: .; E: -1; F: 5157; G: 1

> O=C(NN=Cc1coc2ccccc2c1=O)c1ccccc1
  A: 8.2; B: 6; C: 1; D: .; E: .; F: .; G: 21

> COc1cc(C(CCN2CCOCC2)c2c(OC)cc(OC)c3c2OC(=O)CC3c2ccc(N(C)C)cc2)cc(OC)c1OC (configuration not stated)
  A: 2.5; B: 15; C: 8; D: 0; E: 1; F: 4169; G: -4

> Cc1nc(CCNS(=O)(=O)c2cccnc2)cs1
  A: 2.6; B: 6; C: 2; D: -6; E: -28; F: 4539; G: 6

> CN(Cc1ccc(F)cc1)C(=O)CNC(=O)c1ccc2c(c1)OCO2
  A: 2.6; B: 4; C: 7; D: -1; E: -3; F: 6384; G: 3

> CSc1nc2ccccc2n1CC(=O)Nc1c(C)cccc1C
  A: 2.3; B: -4; C: 9; D: 11; E: -8; F: 3108; G: -2

> COc1ccc(CCNC(=O)c2ccc3ccccc3n2)cc1
  A: 6.7; B: 1; C: -8; D: -2; E: -16; F: 6353; G: 9

> O=c1c(-c2nc3ccccc3s2)cccn1Cc1ccc(Cl)cc1
  A: -3.7; B: 5; C: 7; D: -2; E: -35; F: 9339; G: -3

> OC(COC(c1ccc(Cl)cc1)c1ccc(Cl)cc1)CN1CCCC1 (configuration not stated)
  A: -5.7; B: 10; C: 2; D: -3; E: -4; F: 3321; G: -10

> Cc1ccc(C(=O)O/N=C\c2ccc(N3CCOCC3)c([N+](=O)[O-])c2)cc1
  A: .; B: .; C: .; D: -5; E: -16; F: 2886; G: .

> Cc1cccc2nc(CSc3nc4cc([N+](=O)[O-])ccc4s3)cn12
  A: 15; B: 12; C: 2; D: 2; E: -19; F: 2516; G: 37

> COc1cc(OC)c2c(c1)O[C@@H](c1ccc(OC)c(OC)c1)[C@H](O)C2
  A: 1.4; B: 3; C: -3; D: 1; E: 7; F: .; G: 0

> O=C1CCN(Cc2ccc(Br)cc2)CCN1[C@H](CO)c1ccccc1
  A: .; B: .; C: .; D: 15; E: -6; F: 3772; G: .

> COc1cccc(N=Nc2ccc(O)c3ncccc23)c1
  A: .; B: .; C: .; D: 66*; E: -2; F: 4879; G: .

> CCS(=O)(=O)Nc1ccc(-c2nc3cccnc3s2)cc1
  A: 15; B: -2; C: 1; D: 13; E: 13; F: 5975; G: 6

> COC(=O)[C@@]12CCCCN1[C@H](c1ccc(-c3ccc(C(C)=O)cc3)c(OC)c1)[C@@H]1C(=O)N(C)C(=O)[C@@H]12
  A: .; B: .; C: .; D: 0; E: -17; F: 4344; G: .

> COc1ccc(N(CC(=O)N/N=C/c2cc(Br)c(C)o2)S(=O)(=O)c2ccc(NC(C)=O)cc2)cc1
  A: .; B: .; C: .; D: 1; E: 0; F: 2044; G: .

> CCOC(=O)C1CCCN(S(=O)(=O)c2ccc(S(=O)(=O)N(CC)CC)cc2)C1 (configuration not stated)
  A: 2.9; B: -10; C: -1; D: 13; E: -10; F: 4255; G: -1

> Cc1ccc(-c2nnc(SCC(=O)NN=Cc3c(C)nn(-c4ccccc4)c3C)n2-c2ccc(C)cc2)cc1
  A: -1.9; B: 3; C: -3; D: .; E: .; F: .; G: -9

> Cn1ncc(Br)c1C(=O)N/N=C/c1ccc(OS(=O)(=O)c2ccccc2)cc1
  A: .; B: .; C: .; D: 2; E: -30; F: 9457; G: .

> Cc1cccc(NC(=O)CN2CCN(C(=O)c3cccc(-n4cnnn4)c3)CC2)c1C
  A: 6.6; B: -1; C: -2; D: .; E: -16; F: 5353; G: 5

> N#C/C(=C\c1ccccc1OCc1ccc(C(=O)O)cc1)C(=O)Nc1ccc(O)cc1
  A: 3.9; B: 6; C: -8; D: 8; E: -23; F: 3932; G: 0

> O=C(CN(C(=O)CCC(=O)Nc1nccs1)c1cccc(F)c1)NCCc1ccccc1
  A: 7.7; B: 10; C: 2; D: 1; E: -14; F: 3488; G: -2

> COc1ccccc1C(C)NCC(=O)NC(=O)NCc1ccco1 (configuration not stated)
  A: 0.6; B: 3; C: 5; D: -3; E: -3; F: ?; G: -1

> Cc1ccc(C(C(=O)NC2CCCCC2)N(C(=O)CCCC(=O)Nc2ccccn2)c2ccc3c(c2)OCCO3)cc1 (configuration not stated)
  A: -1.4; B: -15; C: -4; D: -8; E: 0; F: 2671; G: -1

> CC(Sc1cccc[n+]1[O-])C(=O)Nc1cccc(S(=O)(=O)N2CCOCC2)c1 (configuration not stated)
  A: 6.1; B: 4; C: 5; D: -29; E: -30; F: 7262; G: 3

> CCCCN(C(=O)c1ccc(Cl)c(S(=O)(=O)N2CCOCC2)c1)c1c(N)n(CCC)c(=O)[nH]c1=O
  A: 0.9; B: 11; C: 3; D: 0; E: -29; F: 4792; G: 3

> O=C(CNc1ccccc1-c1ccccc1)NCc1ccccc1
  A: 0.4; B: 2; C: -1; D: 0; E: -22; F: 10405; G: -3

> COC(=O)N/N=C/c1cn(CCCOc2ccccc2)c2ccccc12
  A: .; B: .; C: .; D: 6; E: -19; F: 1985; G: .

> O=C(C(=O)N1CCN(Cc2ccc3c(c2)OCO3)CC1)c1c[nH]c2ccccc12
  A: -2.6; B: 7; C: -3; D: -2; E: -2; F: 4509; G: 8

> Cc1ccc(-n2ncc(C(=O)Nc3ccc(Cl)cc3)c2C2CCNCC2)cc1C
  A: -2.3; B: -3; C: 4; D: 12; E: -26; F: 2696; G: 5

> CC1CCN(c2c(NCc3ccc(C(=O)N4c5ccccc5CC4C)cc3)c(=O)c2=O)CC1 (configuration not stated)
  A: 0.3; B: -2; C: 2; D: 3; E: 8; F: 5925; G: -2

> COC(=O)c1sc2nc(CSc3nc4ccc(C)cc4[nH]3)[nH]c(=O)c2c1C
  A: 2.3; B: .; C: .; D: -8; E: -53; F: 3064; G: 2

> CCN1CCN(c2ccc(S(=O)(=O)N3CCCCC3)cc2NC(=O)c2cccc(NC(C)=O)c2)CC1
  A: 2.1; B: -6; C: -1; D: -2; E: 1; F: 6403; G: 0

> CN(C)c1nc(OCCNC(=O)Nc2ccccc2)nc(N(C)C)n1
  A: 3.3; B: 10; C: 19; D: -8; E: -4; F: ?; G: 2

> CCOC(=O)c1sc(-n2[nH]c(C)cc2=O)nc1C
  A: 2.0; B: 23; C: 7; D: 6; E: 2; F: 2235; G: 8

> COc1ccc(C)cc1NC(=S)N1CC(C)OC(C)C1 (configuration not stated)
  A: 2.2; B: 9; C: -7; D: 7; E: -4; F: 5789; G: 2

> CCc1nccc2c1[nH]c1ccccc12
  A: 5.8; B: .; C: .; D: 5; E: -19; F: 4954; G: -8

> Cc1cc(C)cc(NC(=O)Nc2ccc(Cl)cn2)c1
  A: 3.7; B: 2; C: -2; D: 6; E: -11; F: 2209; G: -9
